Bioassay records from PubChem.
26S disassembly: inhibitors of ATP-driven 26S proteasome dissociation, primary screen, biochemical, bead-based flow cytometry, GFP-tagged proteasome. anti-FLAG beads, GFP-proteasome disassembly. inhibition of disassembly, % (concentration not given with the values). actives 0.2% (n = 24,000);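 active means above 40%; inconclusive means likely self-fluorescent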;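 further: plate controls were ATP control with full disassembly for no effect and ATP-gamma-S intact proteasomes for full effect; higher percent means more bead fluorescence retained so stronger block of disassembly; stock transfer was 100 nL into about 10 µL; wells with too few beads may also be inconclusive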
VCAM-1 up: enhancers of VCAM-1 display on endothelial cells, cell-based, plate reader, pooled HUVEC, TNFa stimulus (AID 455). HUVEC TNFa-induced VCAM-1 immunofluorescence, plate reader; numbers were filed only for top-ranked candidate wells. augmentation, % at 5 µM. actives 0.2% (n = 10,000);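 active means a compound raising TNF-alpha-driven VCAM-1 surface staining, with its hit status upheld on visual or statistical review; inactive means the rest, including hits rejected on review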;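 further: 0% = TNFa with vehicle and 100% = strongest image-checked hit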
* hit, by the source's call; i = inactive; u = inconclusive; & = joins results of further samples.

No.	26S disassembly	VCAM-1 up	SMILES
1	-1.2	i	O=S(=O)(c1cccc2cnccc12)N1CCCNCC1
2	0.2	i	C1CCC(C(CC2CCCCN2)C2CCCCC2)CC1 (stereo not given)
3	1.7	i	Cc1nc2ccccn2c(=O)c1CCN1CCC(C(=O)c2ccc(F)cc2)CC1
4	-0.7	i	CCC(C)n1ncn(-c2ccc(N3CCN(c4ccc(OCC5COC(Cn6cncn6)(c6ccc(Cl)cc6Cl)O5)cc4)CC3)cc2)c1=O (stereo not given)
5	-0.2	i	C[C@]12CCC(=O)C=C1CC[C@@H]1[C@@H]2CC[C@@]2(C)[C@H]1CC[C@]2(O)C(=O)CO
6	-1.1	i	Oc1ccc(/C=C/c2cc(O)cc(O)c2)cc1
7	-0.6	i	CC[N+](C)(CC)CCOC(=O)C(O)(c1ccccc1)C1CCCCC1 (stereo not given)
8	u	i	O=C(c1ccc(F)cc1)C1CCN(CCn2c(=O)[nH]c3ccccc3c2=O)CC1
9	-0.1	i	CC(COc1ccccc1)NC(C)C(O)c1ccc(O)cc1 (stereo not given)
10	0.7&-0.1	i	c1ccc(CN(CC2=NCCN2)c2ccccc2)cc1
11	0.5	i	CN(C)CCOC(C)(c1ccccc1)c1ccccn1 (stereo not given)
12	-0.2	i	OCCN1CCN(CCCN2c3ccccc3Sc3ccc(Cl)cc32)CC1
13	0.2	i	O=C(CCNNC(=O)c1ccncc1)NCc1ccccc1
14	0.0	i	CCN(CC)CCNC(=O)c1cc(Cl)c(N)cc1OC
15	-0.3	i	COc1ccc(/C=C/C(=O)Nc2ccccc2C(=O)O)cc1OC
16	-0.2	i	Cc1cc(-c2ccccc2)nnc1NCCN1CCOCC1

Retrieved by compound from the entries so far (2):
No.	26S disassembly	VCAM-1 up	SMILES
15	-0.3	i	COc1ccc(/C=C/C(=O)Nc2ccccc2C(=O)O)cc1OC
1	-1.2	i	O=S(=O)(c1cccc2cnccc12)N1CCCNCC1

Some values from the results shown.
Oc1ccc(/C=C/c2cc(O)cc(O)c2)cc1 in 26S disassembly has -1.1
CC(COc1ccccc1)NC(C)C(O)c1ccc(O)cc1 (stereo not given) in 26S disassembly has -0.1
c1ccc(CN(CC2=NCCN2)c2ccccc2)cc1 in 26S disassembly has 0.7&-0.1
CN(C)CCOC(C)(c1ccccc1)c1ccccn1 (stereo not given) in 26S disassembly has 0.5
CCC(C)n1ncn(-c2ccc(N3CCN(c4ccc(OCC5COC(Cn6cncn6)(c6ccc(Cl)cc6Cl)O5)cc4)CC3)cc2)c1=O (stereo not given) in 26S disassembly has -0.7

Profiles as entered above. Screens in order: 26S disassembly	VCAM-1 up
c1ccc(CN(CC2=NCCN2)c2ccccc2)cc1 is listed as 0.7&-0.1	i
Cc1nc2ccccn2c(=O)c1CCN1CCC(C(=O)c2ccc(F)cc2)CC1 is listed as 1.7	i
Cc1cc(-c2ccccc2)nnc1NCCN1CCOCC1 is listed as -0.2	i

Only part of the results is shown; the hit share may differ from the screen's.
